# VDR inh: blocks the human vitamin D receptor; P11473; VDR-SRC2-3 peptide fluorescence polarization, 2 h; Potency, µM, inactives show max response, negative = inhibition, hits mostly inhibitors; hit rate 0.93% among 400,000; active = well fitted inhibition curve with a large enough effect; inconclusive = small, poorly fitted or top-dose-only effect, or another doubt; inactive = no such curve, though single readings can be large or run the other way; also: series mostly up to about 120 µM
# Target sequence (P11473 whole entry, looked up): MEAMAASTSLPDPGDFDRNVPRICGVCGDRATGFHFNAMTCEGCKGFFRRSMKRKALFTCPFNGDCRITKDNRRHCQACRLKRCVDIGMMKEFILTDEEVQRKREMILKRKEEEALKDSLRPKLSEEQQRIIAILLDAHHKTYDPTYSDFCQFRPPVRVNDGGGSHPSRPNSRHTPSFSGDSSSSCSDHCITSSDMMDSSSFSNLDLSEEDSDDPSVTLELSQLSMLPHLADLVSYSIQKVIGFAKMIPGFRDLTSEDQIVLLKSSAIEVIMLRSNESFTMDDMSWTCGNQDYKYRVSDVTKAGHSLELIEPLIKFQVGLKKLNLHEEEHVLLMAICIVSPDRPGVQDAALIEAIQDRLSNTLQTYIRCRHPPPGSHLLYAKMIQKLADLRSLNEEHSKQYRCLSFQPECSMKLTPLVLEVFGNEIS
#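 Reagent solutions, kept cold and dark, are dispensed first; compounds are then pinned in at 23 nl, plates briefly spun, and incubated 2 h at ambient temperature. Inhibition of VDR–SRC2-3 peptide binding is read by fluorescence polarization.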
# The depositor's hits bear a star; ? = inconclusive; & = joins results of further samples; [ ] = another dose, or the depositor's remark. % is scaled to controls: 0 for no effect and ±100 for the full control effect; potency is read from the fitted curve at half-maximal effect. Some of the compounds tested, so the mix of outcomes need not match the whole.
item	Structure	VDR inh
1	Cc1nn(CC(=O)NCCc2ccc(Cl)cc2)c(=O)c2cccn12	?
2	O=C(/C=C/c1cnc2ccccc2n1)NC1CCCCCC1	-24.5%
3	CCn1c(SCCC(C)C)nnc1-c1c[nH]c2ccccc12	-5.0%
4	Cc1cccc(NC(=S)NCCc2c[nH]c3ccccc23)c1	2.4%
5	COc1ccc(OCCCC(=O)ON=C(N)c2ccccc2Cl)cc1	-4.2%
6	CCOc1ccc(C(=O)CSCCC(=O)O)cc1	?
7	CCOC(=O)N1CCN(c2c(N3CCN(c4ccc(OC)cc4)CC3)c(=O)c2=O)CC1	-11.8%
8	O=C1CC(NCCN2CCOCC2)C(=O)N1Cc1ccc(N2CCCC2=O)cc1 (centres undefined)	-14.8%
9	O=C(COc1cccc2ccccc12)N/N=C/c1ccccc1OCc1ccc(C(=O)O)cc1	3.8%
10	COc1ccc(NC(=O)C2CCN(S(=O)(=O)c3ccc(C)cc3)CC2)cc1OC	57.0%[activator]
11	CC1CC(=O)N(CC(=O)NCc2ccco2)c2ccccc2S1 (centres undefined)	4.1%
12	O=S(=O)(c1ccccc1)N1CC=C(c2ccccc2)CC1	-10.5%
13	COc1ccc2[nH]c3c(c2c1)[C@@H]1CCN2C(=O)CCC[C@H](C3)[C@H]12	-4.1%
14	CC(=O)Nc1ccc(NC(=O)C(C)OC(=O)c2ccc(OCc3c(C)noc3C)cc2)cc1 (centres undefined)	?
15	CCn1c(SCC(=O)Nc2ccc(C(C)=O)cc2)nc2nc3c(cc2c1=O)COC(C)(C)C3	-20.1%
16	Cc1ccc(S(=O)(=O)N2CC=C(N)N2)cc1	-8.7%
17	CC(=O)OCC(=O)C1CCC2C3CCC4=CC(=O)CC[C@@]4(C)C3CC[C@]12C (some centres undefined)	-3.0%
18	CC(=O)Nc1ccc(Nc2c3c4c(cccc4n(C)c2=O)C(=O)c2ccccc2-3)cc1	11.5%
19	CC(=O)Nc1ccc(S(=O)(=O)Nc2ccc(F)c([N+](=O)[O-])c2)cc1	12.8%
20	COc1ccc(CC(=O)NCC2CCCN(Cc3ccc(OC)cc3F)C2)cc1 (centres undefined)	18.3%
21	O=c1cc[nH]c2ccc(OC(F)(F)F)cc12	-5.3%
22	O=C(Nc1ccc(S(=O)(=O)N2CCOCC2)cc1)c1ccc2c(c1)OCO2	12.9%
23	Cc1ccc(-n2c(=O)c3sccc3n(CC(=O)NCc3ccco3)c2=O)cc1F	14.1%
24	CCN1C(C(=O)c2ccccc2)=C(OC(=O)c2ccc(OC)cc2)c2ccccc2S1(=O)=O	13.0%
25	CCn1c(-c2cc(OC)ccc2OC)csc1=Nc1c(C)n(C)n(-c2ccccc2)c1=O	26.1%
26	CN(Cc1ccccc1)C(=O)c1cccc(NC(=O)Cc2ccc(NC(=O)C3CCCN(C(=O)CCc4ccccc4)C3)cc2)c1 (centres undefined)	0.7%
27	Cc1onc(-c2ccccc2Cl)c1C(=O)Nc1ccccc1O	1.3%
28	CCc1nnc(NC(=O)[C@@H](NS(=O)(=O)c2ccc3c(c2)OCCO3)C(C)C)s1	2.6%
29	Cc1noc(C)c1CSc1nnc2ccc3ccccc3n12	-4.6%
30	Cc1cc(=O)oc2cc(NC(=O)CC3(CC(=O)O)CCCC3)ccc12	26.1%

# Looked up one by one from above (two):
item	Structure	VDR inh
25	CCn1c(-c2cc(OC)ccc2OC)csc1=Nc1c(C)n(C)n(-c2ccccc2)c1=O	26.1%
19	CC(=O)Nc1ccc(S(=O)(=O)Nc2ccc(F)c([N+](=O)[O-])c2)cc1	12.8%

# Later entries:
item	Structure	VDR inh
31	CCCCOC(=O)c1ccc(NC(=O)c2ccc(F)cc2F)cc1	2.2%
32	COCCCNC(=S)NCCNc1nc2cc(C)c(C)cc2cc1C#N	11.2%
33	CC(=O)Nc1ccc(S(=O)(=O)Nc2cccc(C(=O)Nc3ccccc3C(=O)O)c2)cc1	-18.6%
34	Cc1nc(-c2ccc(S(=O)(=O)N3CCN(c4cccc(C)c4C)CC3)cc2)co1	?
35	COc1ccc(NC(=O)C2CCCN(S(=O)(=O)c3cccc4nonc34)C2)c(OC)c1 (centres undefined)	-15.7%
36	Cn1c(=O)oc2cc(S(=O)(=O)N3CCN(c4ccc(F)cc4)CC3)ccc21	3.7%
37	Cc1ccc(NC(=O)C[n+]2cc(-c3ccc(C)cc3)n3c2CCC3)cc1	12.2%
38	CCN(CC)C(=O)c1ccccc1NC(=O)c1ccccc1C	-0.1%
39	COc1ccc(OCc2nc(C#N)c(N3CCN(c4ccc(OC)cc4)CC3)o2)cc1	-19.6%
40	COc1ccccc1Cn1c(CNS(=O)(=O)c2ccc(C(C)C)cc2)nc2cccnc21	9.4%
41	O=c1c(-c2ccccc2)nc2cnc(N3CCNCC3)nc2n1-c1ccccc1	?
42	Cc1ccc(/C=N/n2c(COc3ccccc3)n[nH]c2=S)s1	6.4%
43	CCOc1ccccc1NC(=O)CSc1ncc2c(n1)-c1ccccc1N(CC)S2(=O)=O	15.1%
44	COc1ccc(C(=O)Nc2c(-c3cccs3)c(=O)c3ccccc3n2C)cc1	-3.8%
45	COc1ccc(CC(=O)c2ccc(O)cc2O)cc1OC	-10.2%

# Three compounds from above, sorted by the number in VDR inh, falling.
nr | Molecule | VDR inh
37 | Cc1ccc(NC(=O)C[n+]2cc(-c3ccc(C)cc3)n3c2CCC3)cc1 | 12.2%
44 | COc1ccc(C(=O)Nc2c(-c3cccs3)c(=O)c3ccccc3n2C)cc1 | -3.8%
45 | COc1ccc(CC(=O)c2ccc(O)cc2O)cc1OC | -10.2%

# (more compounds)
item	Structure	VDR inh
46	COc1ccc2nc(COC(=O)c3cccs3)c(C(C)=O)[n+]([O-])c2c1	-2.1%
47	Cc1cccc(NC(=O)c2cc3c(=O)n4ccccc4nc3s2)c1	-2.7%
48	N#CCCNC(=O)Cn1c(COc2ccc(Cl)cc2)nc2ccccc21	1.4%
49	COc1ccc(C(=O)Nc2ccccc2C(=O)N/N=C/c2cccc3ccccc23)cc1	38.9%
50	O=C(/C=C/c1ccccc1Cl)N(Cc1ccc(Cl)cc1)C1CCS(=O)(=O)C1 (centres undefined)	-10.6%
51	Cc1c(CC(=O)N2CCCCC2)c(=O)oc2c(C)c(O)ccc12	6.6%
52	CCOC(=O)C1=NN(C(=O)c2ccc(OC)cc2)C(O)(c2ccc(Cl)cc2)C1 (centres undefined)	-9.8%
53	CCOc1ccc(CNC(=O)Nc2ccc3c(c2)N(C)C(=O)c2ccccc2S3)cc1	0.1%
54	Cc1ccc(-c2cn3nc(N4CCCC(C(=O)NCc5ccccc5F)C4)sc3n2)cc1 (centres undefined)	-6.2%
55	Cc1cc(C)c(S(C)(=O)=O)c(N(C)N)n1	4.1%
56	N#C/C(=C\c1ccc(OCC(N)=O)cc1)S(=O)(=O)c1ccccc1	7.7%
57	CSc1cc(C)nc(N(C)C(C)=O)n1	7.4%
58	CC(C)Oc1ccc(C(=O)NC2CCS(=O)(=O)C2)cc1 (centres undefined)	3.5%
59	O=C(NC(=S)Nc1ccc(CN2CCOCC2)cc1)c1cccc(F)c1	0.6%
60	CN(C)c1cccc(C(=O)NCc2ccc3c(c2)OCO3)c1	-8.1%
61	Cc1cc(NC(=O)CCC(=O)N(c2ccccc2)C(C(=O)NC2CCCC2)c2ccccc2F)no1 (centres undefined)	-3.1%
62	CC(C)(C)S(=O)(=O)N1Cc2cc(=O)n(Cc3ccccc3)c(CCO)c2[C@H]1CCO	4.4%
63	COc1ccc(N2CCCCn3c2nc2c3c(=O)n(C)c(=O)n2C)cc1	4.6%
64	O=C(NCCO)/C(=C\c1ccc([N+](=O)[O-])o1)NC(=O)c1ccccc1	-7.0%
65	NNc1nnnc2c1sc1nc(N3CCOCC3)c3c(c12)CCCC3	-27.5%
66	CCCCCCCCNS(=O)(=O)CCNCCc1ccccc1	-6.3%
67	CCOC(=O)CSc1nc2ccc(Nc3nc(N4CCOCC4)nc(N4CCOCC4)n3)cc2s1	6.4%
68	O=C(O)c1[nH]c2ccccc2c1NS(=O)(=O)c1ccc(F)cc1	-4.1%
69	CCCCC(=O)NCCNc1nc2c(c(=O)n(C)c(=O)n2C)n1Cc1ccccc1	6.6%
70	O=C(COc1ccccc1)N=C1SC2CS(=O)(=O)CC2N1CCc1ccccc1 (centres undefined)	8.8%
71	CC1=C(C)CC(C(=O)NCc2ccccn2)C(C(=O)O)C1 (centres undefined)	-5.5%
72	CCOC(=O)c1ccc(Nc2ccc([N+](=O)[O-])cn2)cc1	10.4%
73	CC12CCC(C(=O)N(CCCN3CCN(Cc4ccccc4)CC3)C1=O)C2(C)C (centres undefined)	-12.8%
74	COCCn1c(=O)c(-c2ccccc2)nc2cnc(OC)nc21	3.2%
75	CCN(CC1CCCO1)C(=O)c1cc(COc2cc(C)c(Cl)c(C)c2)on1 (centres undefined)	-10.4%

# Ordered by heavy-atom count (low to high): some entries from above.
item	Structure	VDR inh
2	O=C(/C=C/c1cnc2ccccc2n1)NC1CCCCCC1	-24.5%
48	N#CCCNC(=O)Cn1c(COc2ccc(Cl)cc2)nc2ccccc21	1.4%
33	CC(=O)Nc1ccc(S(=O)(=O)Nc2cccc(C(=O)Nc3ccccc3C(=O)O)c2)cc1	-18.6%

# The list continues.
item	Structure	VDR inh
76	Nc1nncn1C(=O)c1cccs1	-3.5%
77	O=C(Nc1cccc(F)c1)/C(=C/c1ccco1)NC(=O)c1ccco1	-1.3%
78	C/C(Cc1ccccc1)=N\NC(=O)CNC(=O)c1ccc(Cl)cc1Cl	-7.3%
79	COc1ccc(C(=O)NCCCNC(=O)c2cc3ccccc3[nH]2)cc1OC	?
80	C=CCNc1oc(-c2ccc(-c3ccccc3)cc2)nc1C#N	?
81	Cc1ccc(CNC(=O)CN2CCC(C(N)=O)CC2)cc1	-6.2%
82	COC(=O)C1=C(C)N(C)C(=S)NC1c1c(OC)ccc2ccccc12 (centres undefined)	-16.1%
83	CCN1/C(=C/c2cccc[n+]2C)Sc2ccc(OC)cc21	-16.6%
84	COc1ccc(/C=N/Nc2ccc(C(F)(F)F)cc2[N+](=O)[O-])cc1O	-15.3%
85	O=C(CSc1nnc(NC(=O)c2ccco2)s1)Nc1ccc(F)cc1	5.4%
86	CC(C)(C)c1ccc(C(=O)NNC(=S)NC(=O)c2cccnc2)cc1	-6.9%
87	O=C(NCc1ccco1)C1CCN(C(=O)Cc2ccccc2)CC1	-8.8%
88	Nc1nnc(Cc2ccc(Cl)cc2Cl)s1	8.3%
89	COc1cc2c(cc1OC)CN(c1ccc([N+](=O)[O-])cc1Cl)CC2	-11.3%
90	CC(C)(C)NC(=S)Nc1ccc(Br)cc1	22.3%
91	COC(=O)CNC(=O)C(C)NC(=O)CNC(=O)OCc1ccccc1 (centres undefined)	0.5%
92	CN(C)C(=O)c1ccc(NC(=O)COC(=O)c2cc3c(s2)CCCCC3)cc1	1.4%
93	CCOc1ccc(-c2c(C(=O)N/N=C/c3ccncc3)nnn2-c2nonc2N)cc1	7.5%
94	O=C1[C@H]2CCCC[C@H]2C(=O)N1CCCCN1CCN(c2nsc3ccccc23)CC1	?
95	O=C(c1ccccc1)N1CCN(Cc2cccc(Oc3ccccc3)c2)CC1	?
96	COc1ccc(CCNC(=O)CCCn2ncn3c(cc4occc43)c2=O)c(OC)c1	0.1%
97	COc1cc(-c2nc3ccc(C)cn3c2Nc2ccc(Cl)cc2)ccc1O	-19.5%
98	CCOc1cccc2sc(N3CCN(C(=O)c4ccc5c(c4)CCCC5)CC3)nc12	16.8%
99	CC(C)C(NC(=O)c1ccc(Cl)cc1)C(=O)O (centres undefined)	-0.8%
100	O=C(Cn1nc(-c2ccc(Cl)cc2)c2ccccc2c1=O)NN1CCOCC1	-0.3%
101	COc1ccc(-c2noc(CNC(=O)c3ccc(OC)cc3OC)n2)cc1	13.8%
102	COc1ccc(OC)c(-c2nc(C(=O)NCC3CCCO3)cc3c2[nH]c2ccccc23)c1 (centres undefined)	-8.8%
103	COCCNC(=S)N1CCc2cc(OC)c(OC)cc2C1COc1ccc(F)cc1 (centres undefined)	17.6%
104	O=C(NC1(O)C(=O)c2ccccc2C1=O)c1ccc(C(F)(F)F)cc1	1.78µM*
105	CCN(c1ccccc1)S(=O)(=O)c1ccc(Cl)c(C(=O)OCC(=O)c2[nH]c(C)c(C(C)=O)c2C)c1	8.6%
106	Cc1ccc(NC(=O)c2ccc(CN3CC(=O)N4CCCCC4C3=O)cc2)c(C)c1 (centres undefined)	-12.2%&22.1%
107	CC12COC3(C(=O)Nc4ccc(F)cc4)CC1CCC32C (centres undefined)	-15.7%
108	Cn1c(=O)c2c(nc(NN=C3CCCCC3)n2C)n(C)c1=O	10.3%
109	Cc1ccccc1CNC(=O)C1=Cc2ccccc2OC1	3.2%
110	O=C(COC(=O)c1cc([N+](=O)[O-])ccc1N1CCCC1)Nc1ccccc1OC(F)F	0.8%
111	COc1ccc(N2CCN(C(=O)c3ccc4c(c3)N(Cc3cc(C)ccc3C)C(=O)c3ccccc3S4=O)CC2)cc1 (centres undefined)	-6.0%
112	CCC(CC)NC(=O)CON=C1c2ccccc2-c2ccccc21	2.9%
113	CCOc1ccc(Nc2sc(C(=O)c3cccc(OC)c3)c(N)c2S(=O)(=O)c2ccccc2)cc1	7.1%
114	CN1/C(=C\C(=O)c2ccco2)C(C)(C)c2ccccc21	?
115	CCOCCSc1nc2c(c(=O)[nH]c(=O)n2C)n1CCCc1ccccc1	0.6%
116	COc1ccccc1-n1c(=O)n(C)c2c(C(N)=O)nc(-c3cc(OC)c(OC)c(OC)c3)nc21	0.5%
117	COc1ccc(CN(C)c2ccc(-c3nc(-c4ccc(OC)c(OC)c4)no3)cc2[N+](=O)[O-])cc1	5.3%
118	CCC(C)c1ccc(NC(=O)C2CCN(c3ncccn3)CC2)cc1 (centres undefined)	-11.2%
119	O=C1CN(C(=O)c2ccc(Cl)c(S(=O)(=O)N3CCc4ccccc43)c2)c2ccccc2N1	-1.4%
120	CCOC(=O)c1sc(=NC(=O)c2ccc(C)c(C)c2)n(C)c1C	-21.6%
121	CCOc1ccc(CN2C(=O)c3ccccc3C2C(=O)NC(C)CC)cc1OC (centres undefined)	14.5%
122	CCN1CCN(CCn2c(=S)[nH]c3cc4c(cc3c2=O)OCO4)CC1	8.8%
